Source: PubChem BioAssay
LANA-H2A inh – blocks KSHV LANA binding to histone H2A/H2B; Q9QR71; cell-free LANA-H2A/H2B peptide, fluorescence polarization; inhibition, % (concentration not given with the values); 320,000 compounds, 0.6% hits; in the data active = inhibition mostly above about 10%, no sharp cut-off; inactive = mostly below about 6.7%;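 also: stock transfer was 7.5 nL into about 10 µL; 0% = median of vehicle wells and 100% = median of positive control wells; one replicate is shown; the record names a cut of 25% in any replicate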
E coli growth – E. coli growth inhibition | Escherichia coli growth, OD600, 23 h; stronger effect = lower value | OD600 absorbance (concentration not given with the values) | 330,000 compounds, 0.21% hits;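 active = OD600 absorbance below the run mean of sample wells minus 3.6 SD, in any replicate, cut at about 0.56 in these data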;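 also: stock transfer was 300 nL into about 60 µL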
UCH37 inh – human UCH37 deubiquitinating enzyme inhibition. Q9Y5K5. purified proteasome/UCH37, Ub-AMC cleavage fluorescence. inhibition, % (no concentration beside the values). 330,000 compounds, 0.33% hits. AID 588478;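 active = mean of two replicates above 20%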;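 also: 0% = compound-free wells with enzyme and 100% = wells lacking proteasome; stock transfer was 100 nL into about 20 µL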
Target sequence (Q9Y5K5 whole entry, looked up): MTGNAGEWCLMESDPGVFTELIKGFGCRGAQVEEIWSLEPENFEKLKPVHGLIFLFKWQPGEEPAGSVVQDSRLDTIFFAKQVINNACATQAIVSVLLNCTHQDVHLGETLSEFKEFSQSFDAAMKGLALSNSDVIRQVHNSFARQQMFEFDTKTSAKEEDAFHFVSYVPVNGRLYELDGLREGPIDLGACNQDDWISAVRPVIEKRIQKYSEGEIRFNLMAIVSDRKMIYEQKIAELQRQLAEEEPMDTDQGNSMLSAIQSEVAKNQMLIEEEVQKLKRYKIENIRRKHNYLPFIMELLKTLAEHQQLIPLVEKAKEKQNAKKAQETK
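Reagent: Ub-AMC substrate; assay system: Proteasome-associated human UCH37 deubiquitinase; controls: no-proteasome and no-compound wells; read-out: % inhibition of Ub-AMC cleavage fluorescence; timing: 30 min preincubation with enzyme, 25 min cleavage at room temperature; signal: AMC fluorescence from Ub-AMC cleavage, excitation 355 nm, emission 460 nm; buffer or medium: Tris-HCl pH 7.4 plus ovalbumin, ATP-MgCl2, DTT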
Vif TR-FRET – HIV-1 Vif–A3G interaction blockers – biochemical, TR-FRET, GST-Vif 1-94, biotin-A3G peptide, dose response retest, primary screen (AID 1117319). TR-FRET GST-Vif / biotin-A3G peptide binding; higher % means a stronger effect; test concentration not given here; strong numbers were not always called active. 260,000 compounds, 0.57% hits. one-dose inhibition, %; IC50 in µM for titrated hits;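 active = above the screen mean plus three standard deviations and confirmed in dose response; inconclusive = results disagree or hit not tested in dose response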;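 also: Vif residues 1-94 fused to GST binding biotinylated APOBEC3G peptide 110-148; 0% = full assay without inhibitor and 100% = GST in place of GST-Vif; retest series ran down from 100 µM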
Beta2AR agonist – agonists of human beta-2 adrenergic receptor inducing internalization; AID 504454; response, % (no concentration beside the values); 340,000 compounds, 0.43% hits; P07550; Am2.2-beta2AR cells, FAP receptor internalization, flow cytometry; reference of the scale not given here;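 active = response above a set limit, near 3 SD of response in nonfluorescent compounds, cut at about 42% in these data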;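 also: stock transfer was 100 nL into about 11 µL; a reference agonist was the positive control; negative values mostly stem from fluorescent compounds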
Target sequence (P07550 whole entry, looked up): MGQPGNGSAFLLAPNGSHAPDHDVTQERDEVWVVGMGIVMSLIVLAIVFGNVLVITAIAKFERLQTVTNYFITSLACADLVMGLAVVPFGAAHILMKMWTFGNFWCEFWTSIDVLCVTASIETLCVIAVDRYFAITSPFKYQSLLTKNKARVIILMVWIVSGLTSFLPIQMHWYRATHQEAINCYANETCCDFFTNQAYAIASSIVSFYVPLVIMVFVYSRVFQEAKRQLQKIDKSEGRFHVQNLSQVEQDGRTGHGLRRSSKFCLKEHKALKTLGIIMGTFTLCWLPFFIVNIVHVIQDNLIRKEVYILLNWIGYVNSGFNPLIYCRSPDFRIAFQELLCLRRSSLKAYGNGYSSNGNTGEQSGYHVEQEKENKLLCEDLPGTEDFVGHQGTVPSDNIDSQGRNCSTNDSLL
Bfl-1 A1 inh – inhibitors of the anti-apoptotic protein A1, read as caspase activation; MEF A1-2A-BIM cells, Caspase-Glo 3/7 luminescence, 3 h; percent of clofoctol response, vehicle zero; caspase activation, % (test concentration not listed); 330,000 compounds, 0.066% hits;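 active = over half of replicate activation scores above 10%, or exactly half above 10 with the replicate mean above 10; inconclusive = replicate mean below 10 yet half the replicates above 10; inactive = over half of replicates below 10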;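 also: wells of about 30 µL received 50 nL stock; many hits fall short of the cut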
HNF4A DNA FP – change in binding of human HNF4 alpha to DNA | P41235 | 360,000 compounds, 0.3% hits | activity change, % at 10 µM | HNF4a-FITC DNA binding, fluorescence polarization, 1 h; in the data active = activity change above about 30%, passing the limit was not always enough;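 also: controls were the assay level and a saturating level of protein; the project sought stronger binding though the title names inhibitors; some compounds called inactive have numbers as strong as hits; positive values seem to mean higher polarization but the record does not say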
* marks the source's active call; other numbers are inactive results; ? = inconclusive; . = no result given; & = joins results of further samples.

SMILES	LANA-H2A inh	E coli growth	UCH37 inh	Vif TR-FRET	Beta2AR agonist	Bfl-1 A1 inh	HNF4A DNA FP
COc1ccc2nc(COC(=O)c3ccco3)c(C(C)=O)[n+]([O-])c2c1	1.8	0.72	-15	13%	-2	0.8	-1.1
CCOc1cccc(C(=O)NC(=S)Nc2ccc3c(c2)OCCO3)c1	-0.7	.	.	-4%	1	-0.5	-2.9
CN1CCN(C(=O)CC23CC4CC(CC(C4)C2)C3)CC1	-5.7	0.7	0.4	4%	6	0.8	1.8
CC(C)C[C@H](NC(=O)C1CC(=O)N(c2ccc3c(c2)OCCO3)C1)C(=O)NC1CCCC1 (stereo not given in full)	2.0	0.73	4.0	-2%	-4	0.8	0.3
COc1ccc(Cl)cc1S(=O)(=O)NCc1cccnc1	1.4	0.74	0.8	23%	2	0.4	3.2
COc1ccc(CNS(=O)(=O)c2csc(C(N)=O)c2)cc1OC	4.8	0.67	1.6	.	3	-0.2	-0.3
O=C(Nc1nnc(S(=O)(=O)N2CCOCC2)s1)c1ccccc1	3.6	0.66	4.0	.	4	-0.9	-9.2
Cc1ccccc1OCC(=O)N(Cc1ccco1)c1c(N)n(Cc2ccccc2)c(=O)[nH]c1=O	-1.9	0.69	0.5	3%	1	0.5	-2.3
COc1ccc(C(=O)NCc2nc(C)c(C)s2)cc1OC1CCN(C(C)C)CC1	0.5	0.71	-0.8	-1%	0	0.0	2.4
Cc1ccc(CN2CCC(C(=O)Nc3cccc(-c4cccc(F)c4)c3)CC2)o1	1.2	0.66	-0.6	.	12	-0.5	1.1
CCOC(=O)c1ccc(NC(=O)C2CCN(C(=O)c3ccc(OC)c(OC)c3)CC2)cc1	1.0	0.73	2.7	0%	4	0.5	0.0
Cc1ccc(S(=O)(=O)CCC(=O)OCC(=O)Nc2cc(S(=O)(=O)N3CCOCC3)ccc2Cl)cc1	.	0.7	-0.1	.	14	.	-0.5
COc1cccc(CNC(=O)c2nnn(CC(=O)Nc3c(C)cccc3C)c2N)c1	2.3	0.69	1.5	.	-1	-0.4	-6.0
COc1cc(SC)ccc1C(=O)N(Cc1ccccc1)c1ccccn1	-5.7	0.66	3.0	-1%	-12	0.3	-9.0
CCC1=C([N+](=O)[O-])C(c2ccc3c(c2)OCO3)NC(=O)N1 (stereo not given)	1.8	0.65	7.0	.	-1	0.5	-3.6
Cc1ccc(-c2c(C)n([O-])c3c([n+]2=O)CCC3)cc1	0.6	0.68	4.3	2%	2	0.5	1.4
Cc1nc(C)c(-c2ccc(SCC(=O)Nc3cccc(Cl)c3)nn2)s1	-1.2	0.7	2.4	.	-9	1.7	5.0
CCOC(=O)c1c(C)c(C(=O)Nc2cc(OC)ccc2OC)c(C)n1CC	-5.1	0.66	2.3	1%	-7	-1.9	0.8
CCOC(=O)c1c(C)[nH]c(NC(=O)NNC(=O)c2ccccc2Cl)c1C	1.4	0.65	0.1	.	-2	-0.5	0.7
CN(c1ccccc1)S(=O)(=O)c1cc(Cl)ccc1Cl	-1.0	0.68	1.5	-14%	-3	-0.6	3.0
Cc1ccc(C(=O)N/C(=C\c2cccs2)C(=O)NCCc2c[nH]c3ccccc23)cc1C	-6.7	0.68	4.7	?	4	0.7	0.1
O=C(CCCCn1c(=O)c2ccccc2n(CC(=O)Nc2ccccc2)c1=O)NCc1ccco1	4.0	0.76	0.1	-4%&-7%	-3	0.3	-0.4
CCN(CC)CCNc1ccc(C)c2sc3ccc(O)cc3c(=O)c12	.	.	.	3%	-24	.	33
O=C(COC(=O)c1ccccc1F)Nc1cc(S(=O)(=O)N2CCOCC2)ccc1N1CCCC1	2.0	0.65	1.0	17%	-4	-1.0	-2.9
O=C(O)CSc1nnc(COc2ccccc2)n1-c1ccccc1	-3.1	0.71	5.6	-3%	2	0.5	-0.8
NC(=O)CSc1nnc(-c2ccc(S(=O)(=O)N3CCCCC3)cc2)n1-c1ccccc1	5.5	0.69	2.6	-14%	4	0.0	1.5
CCOc1cccc(CNn2cnnc2)c1OCc1ccccc1Cl	-5.1	0.74	1.0	3%	-5	-0.1	-0.9
O=C(Nc1ccc(N2CCOCC2)cc1N1CCOCC1)c1ccccc1	5.1	0.64	4.1	2%	-12	0.2	1.6
COc1cc(C(=O)NCC2CCCN2S(=O)(=O)c2cccs2)cc(OC)c1OC (stereo not given)	-5.7	0.61	-0.6	1%	-4	0.9	1.6
CC1(C)Cc2c(cnn2-c2ccccc2)C(NC(=O)CCN2CCCCO2)C1 (stereo not given)	0.7	.	.	.	1	-0.5	2.9
O=S1OC(c2ccccc2)c2cc(Cl)ccc21 (stereo not given)	-1.5	0.64	-0.5	.	4	0.8	-2.0
O=C(c1cc(-c2cccs2)on1)N1CCOCC1	1.0	0.66	0.9	1%	-8	-1.9	20
CC1CN(C2CCN(S(=O)(=O)c3ccc(F)cc3)CC2)CC(C)O1 (stereo not given)	0.0	0.69	6.5	?	-2	-0.7	-0.3
CC(C)NC(=O)N(C)C[C@H]1Oc2ccc(NC(=O)Cn3cnnn3)cc2C(=O)N([C@H](C)CO)C[C@@H]1C	-93	0.73	1.4	-4%	12	0.2	5.4
O=C(Nc1cccc(Cl)c1)Nc1cc(S(=O)(=O)N2CCOCC2)ccc1N1CCCC1	-11	0.66	5.2	.	.	1.4	3.2
O=C(Cc1sc(-c2ccccc2)nc1-c1ccccc1)Nc1ccccc1	-0.5	0.74	0.0	-11%	-12	1.0	-1.8
Cc1ccc(CSC2=Nc3ccccc3C3=NC(=O)CN23)cc1	0.1	0.65	-30	-4%	0	0.0	-0.6
CCOc1ccccc1N1CCN(Cc2ccc(Br)s2)CC1	-3.7	0.69	4.9	-2%	5	-0.5	-6.7
O=C(NCc1n[nH]c(=S)n1-c1ccc(F)cc1)c1ccc(S(=O)(=O)N2CCOCC2)cc1	-1.5	0.73	1.3	26%	-10	-0.9	32*
Cc1ccc(NC(=O)COC(=O)CCc2ccc(S(=O)(=O)N3CCOCC3)cc2)cc1C	-1.8	0.66	6.0	-2%	-2	0.2	-0.8
COc1ccc(C2SCC(=O)N2CC23CC4CC(CC(C4)C2)C3)cc1 (stereo not given)	-1.7	0.69	3.7	2%	1	0.2	-2.7
Cc1onc(-c2ccccc2)c1C(=O)Nc1ncc([N+](=O)[O-])s1	-0.4	0.62	5.8	.	17	-0.7	2.0
Cc1oc2c(c1C(=O)N1CCC(C)CC1)C(=O)c1ccccc1C2=O	-0.5	0.71	13	7%	.	-0.5	.
Cn1c(-c2ccc(F)cc2)cnc1SCC(=O)NCc1ccco1	-0.2	0.73	1.2	-5%	6	0.1	1.3
Cc1ccc(Sc2cc(N3CCOCC3)nc(-c3ccccc3)n2)cc1	0.0	0.74	2.3	28%	43*	0.3	-2.4
CC(C)n1c(Sc2nccn2C)nc2c1c(=O)n(C)c(=O)n2C	-25	0.72	0.5	-3%	-3	-0.1	1.8
Cc1ccc(-c2ccc([C@H]3[C@@H]4C=CCC[C@@]4(C)C(=O)N3Cc3ccccc3)c(F)c2)cc1	-4.8	.	-1.5	.	8	0.0	-2.8
COc1ccc(-c2cn(CCO)c(-c3ccc(Cl)nc3)n2)cc1	-1.4	0.68	-0.7	.	-10	0.1	-0.7
O=C(Nc1ccnn1C1CCN(Cc2ccc(Cl)cc2)CC1)C1CCCC1	-3.8	0.72	1.4	.	-3	-0.2	0.1
Cc1cccc(-n2c(C)cc(/C=N\NC(=O)c3ccco3)c2C)c1	-6.7	.	.	7%	14	0.4	7.9
The listing continues:
SMILES	LANA-H2A inh	E coli growth	UCH37 inh	Vif TR-FRET	Beta2AR agonist	Bfl-1 A1 inh	HNF4A DNA FP
CCc1cc([N+](=O)[O-])cc(CC)c1N	-2.3	0.74	7.2	6%	7	0.1	-1.4
Cc1nn(-c2ccccc2)c(C)c1C(=O)OCC(=O)NC(=O)NC1CCCC1	-4.1	0.68	0.6	4%	-7	0.5	2.5
Cc1ccc(NC(=O)C2(NC(=O)c3cccc(N4C(=O)CSC4c4ccccc4)c3)CCCCC2)cc1 (stereo not given)	-3.9	0.7	0.8	23%	-2	0.2	-5.0
N#Cc1ccc(OCC(=O)NN2Cc3ccccc3C2=N)cc1	-0.9	0.69	1.1	.	3	1.3	-1.5
CC(=O)c1c(C)[nH]c(C(=O)OCC(=O)Nc2cccnc2Cl)c1C	-3.5	0.65	2.0	-4%	-14	1.1	2.4
O=C(Nc1ccc(N2CCN(C(=O)c3ccco3)CC2)cc1)c1ccc(Br)cc1	3.3	0.7	1.6	.	7	0.8	-0.3
Cc1[nH]c2ccccc2c1C(c1ccncc1)N1CCC(C)CC1 (stereo not given)	1.7	0.69	2.6	25%	5	0.7	-2.2
O=C(N/N=C/c1ccccc1[N+](=O)[O-])c1cccs1	-4.4	.	.	1%	-5	-2.7	1.8
COc1ccc([N+](=O)[O-])cc1NC(=O)CC1SC(=Nc2cccc(C)c2C)N(/N=C/c2cccc(OC)c2OC)C1=O (stereo not given)	-5.8	0.69	6.8	-7%	-1&1	0.2	-0.4&7.7
COc1ccc(C(=O)OCc2csc(C)n2)c(O)c1	0.6	0.7	-0.9	.	1	-3.5	0.3
O=C(Nc1ccc2oc(-c3ccncc3)nc2c1)c1ccc2c(c1)OCCO2	-8.0	0.71	-12	10%	73*	-0.1	8.7
Cc1ccc(C#CC[N+]2(C)CCCCC2)cc1	-1.3	0.64	4.3	-2%	4	0.0	-1.4
O=C(COc1ccc(Cl)cc1Cl)OCC(=O)N1CCCc2ccccc21	2.0	0.71	3.6	.	1	0.0	0.1
COC(=O)c1ccc(CNC(=O)COC(=O)c2cc(Cl)ccc2O)cc1	-0.8	0.68	-8.3	.	4	-0.9	-0.1
OCCC1CN(Cc2cccn2-c2ccccn2)CCN1C1CCCC1 (stereo not given)	2.3	0.75	2.3	5%	4	0.5	-4.7
Cc1ccc(S(=O)(=O)Nc2c(O)c3ccccc3oc2=O)cc1C	5.8	0.7	0.7	.	16	0.1	-1.8
CCOC(=O)NC(=O)c1cn(N(C)c2ncc(C(F)(F)F)cc2Cl)c(=O)[nH]c1=O	-1.2	0.74	-3.1	-3%	4	0.2	3.5
Cc1c(Cl)ccc2c1NC(=O)[C@]21N[C@@H](Cc2ccccc2)[C@H]2C(=O)N(c3ccc(F)cc3)C(=O)[C@H]21	4.5	0.65	1.1	0%	-7	0.0	1.5
CCOc1cc(C=NN=C2c3ccccc3-c3ccccc32)ccc1O	.	.	.	4%	-1	.	-4.6
CC(O)c1nc(C(C)O)n(CC(=O)c2ccccc2)n1 (stereo not given)	0.7	0.7	3.6	.	-4	0.9	-4.9

A few values from the entries so far.
`Cc1ccc(S(=O)(=O)Nc2c(O)c3ccccc3oc2=O)cc1C` @ E coli growth: 0.7
`O=C(Nc1ccc2oc(-c3ccncc3)nc2c1)c1ccc2c(c1)OCCO2` @ LANA-H2A inh: -8.0

Additional entries:
SMILES	LANA-H2A inh	E coli growth	UCH37 inh	Vif TR-FRET	Beta2AR agonist	Bfl-1 A1 inh	HNF4A DNA FP
COc1ccc(C)cc1S(=O)(=O)N1CCOCC1	4.4	0.67	-1.1	3%	2	-0.9	0.0
COc1ccc(C(=O)Nc2ccc(N3CCCCC3)cc2)cc1Br	1.0	0.69	1.7	31%	2	-5.2	0.4
CCOc1ccc(N=C2NC(=O)SC2CC(=O)OC)cc1 (stereo not given)	-2.0	0.66	5.4	1%	0	0.6	-2.8
FC(F)(F)c1cccc(N/N=C/c2ccccc2)c1	-2.1	.	.	.	1	-0.9	0.9
Cn1cc(S(=O)(=O)N2CCC(C(N)=O)CC2)c(=O)n(C)c1=O	-3.9	0.72	1.0	4%	-3	0.7	4.7
